Screening results: PubChem, SRMLSC
H5N1 CPE = antiviral screen in MDCK cells, H5N1 avian flu; cytopathic effect, luminescence, 72 h; stronger effect = higher value; no value below 0 was filed and about half of the inactive calls have no number; reference of the scale not given here; inhibition, % at 50 µM; 96,000 compounds, 0.07% hits; in the data active = inhibition above about 25%
* = called active by the depositor; i = inactive.

SMILES | H5N1 CPE
CCOC(=O)c1cnn2c(N)c(C#N)nnc12 | i
Cc1ccc(NC(=O)c2cc(S(=O)(=O)N3CCOCC3)ccc2F)c(C)c1 | i
Cc1cc(N2CCN(c3ccccc3F)CC2)nc2cc(O)ccc12 | 0.1
O=S(=O)(c1cccc(S(=O)(=O)N2CCCC2)c1)c1cccc(S(=O)(=O)N2CCCC2)c1 | 2.1
COCCn1c(Cc2ccccc2)nnc1SCC(=O)NC(C)C | 0.1
O=C(O)c1nc(-c2ccccc2)n(-c2ccc(Cl)cc2)n1 | i
Cc1ccc(C(=O)N/C(=C\c2ccc([N+](=O)[O-])cc2)C(=O)NCCc2ccccc2)cc1 | i
Cc1cc(C)c2c(=O)[nH]c(SCC(=O)Nc3ccccc3)nc2n1 | 0.3
CCOC(=O)c1ccc(NC(=O)Nc2ccc(F)cc2)cc1 | 1.9
O=C(CCCn1c(=O)[nH]c2cc(Cl)ccc2c1=O)NCC1CCCO1 (stereo unspecified) | i
Cn1c(=O)c2c(nc(-n3ccnc3)n2C)n(C)c1=O | i
O=C(NCC12CC3CC(CC(C3)C1)C2)c1nn2cccnc2c1Cl | 5.8
Cc1onc(-c2ccccc2)c1C(=O)NCCc1ccc(Cl)cc1 | i
CCCn1c(-c2ccc(OC)cc2)nc2c(=O)n(C)c(=O)[nH]c21 | i
FC(F)(F)c1cc(Sc2ccccc2)nc(-c2ccccn2)n1 | 0.1

Some of these compounds in order of SMILES length, largest number first:
SMILES | H5N1 CPE
Cc1ccc(NC(=O)c2cc(S(=O)(=O)N3CCOCC3)ccc2F)c(C)c1 | i
O=C(CCCn1c(=O)[nH]c2cc(Cl)ccc2c1=O)NCC1CCCO1 (stereo unspecified) | i
Cc1cc(C)c2c(=O)[nH]c(SCC(=O)Nc3ccccc3)nc2n1 | 0.3
O=C(NCC12CC3CC(CC(C3)C1)C2)c1nn2cccnc2c1Cl | 5.8
O=C(O)c1nc(-c2ccccc2)n(-c2ccc(Cl)cc2)n1 | i

Carrying on:
SMILES | H5N1 CPE
Cc1ccc(-c2cc(-c3cccc(F)c3)n[nH]2)c(O)c1 | 11.7
CCS(=O)(=O)Nc1ccc(C(=O)OC)cc1 | 0.8
CCN(CC)C(=O)CSc1nc2ccccc2c(=O)n1CCC(=O)NCc1ccc(F)cc1 | i
CCOc1ccc(Cl)cc1CNCCNCC(C)O (stereo unspecified) | 1.2
Cc1noc(C)c1COC(=O)CCc1nc2ccccc2c(=O)[nH]1 | 0.2
Cc1c(NC(=O)CSc2nc3ccccc3[nH]2)c(=O)n(-c2ccccc2)n1C | i
CC(=O)c1cc(C(=O)Nc2ccccc2C(=O)O)oc1C | i
O=C(Nc1ccc2c(c1)OCCO2)c1ccc(S(=O)(=O)N2CCCCC2)cc1 | 0.1
Cc1nc(NC(=O)c2oc3ccccc3c2C)sc1C(=O)N(C)C | i
CC(C)(C)OC(=O)NCCc1nnc(SCC(N)=O)o1 | i
CSc1ncccc1C(=O)OCc1ccc(C#N)cc1 | 0.2
O=C(COC(=O)[C@H](Cc1ccccc1)N1C(=O)c2ccccc2C1=O)Nc1ccc2c(c1)OCO2 | i
COc1ccc(Cl)cc1NC(=O)CSc1nnc(COc2ccccc2)n1C | 1.9
COc1ccccc1NC(=O)C1=C(C)Nc2nnnn2C1c1cccc(C)c1 (stereo unspecified) | i
O=C(NCCN1CCOCC1)c1nn2c(c1Cl)NC(c1ccccc1)CC2C(F)(F)F (stereo unspecified) | i
COCC(O)CSc1nc(C)[nH]c1[N+](=O)[O-] (stereo unspecified) | 0.1
CC(NC(=O)C1CCCN1S(=O)(=O)c1cccc2cccnc12)c1ccccc1 (stereo unspecified) | 3.4
CC(C)CNC(=S)NNC(=O)c1ccccc1OC(F)F | i
Cc1sc2c(c1C)c(=O)nc1n2Cc2ccccc2-1 | 1.2
O=C(CCCOc1ccccc1)Nc1nccs1 | i
CCNC(=O)CN1C(=O)NC2(CCCc3cc(OC)ccc32)C1=O (stereo unspecified) | i
COc1ccc(C(c2nnnn2Cc2cccs2)N2CCN(c3ccccc3F)CC2)cc1OC (stereo unspecified) | 0.4
Cc1ccc(N/C=C(/C#N)c2ccsc2)cc1C | i
CCc1c(O)nc(SCC(=O)Nc2ccc(OC)cc2)n(C2CCCCC2)c1=O | i
O=C1CC(c2ccc(F)cc2)Cc2nc(N3CCOCC3)ncc21 (stereo unspecified) | 0.3
Cn1c2c(c(=O)n(C)c1=O)C(c1ccccc1OC(F)F)C1=C(CCCC1=O)N2 (stereo unspecified) | i
Cc1ccc2nc(-c3ccc(NC(=S)NC(=O)CC(C)C)cc3)sc2c1 | i
CN(C)c1nc2n(c(=S)n1)CCS2 | i
CCOC(=O)CSc1nnnn1-c1cccc2ccccc12 | i
CCNc1nc(Oc2ccc(C(=O)OC)cc2)nc(N(C)C)n1 | 0.7
CC(C(=O)NCC1CCCO1)N(C(=O)c1snc(C(N)=O)c1N)c1ccccc1 (stereo unspecified) | i
Cc1cc(NC2CCCCC2)nc(-c2ccccc2O)n1 | 1.0
OCCNc1nc2ccccc2n1-c1ccccc1 | 0.6
Cc1c(C(=O)O)sc(=S)n1-c1ccc(Cl)cc1 | i
O=C(CCn1cnc2ccccc2c1=O)Nc1ccc(S(=O)(=O)N2CCCC2)cc1 | 1.0
CCOc1ccc2nc(NC(=O)CN3CCC(n4nnc5cc(F)ccc54)CC3)sc2c1 | i
CCn1c(O)c(/C=C2\C=Nc3ccccc32)sc1=Nc1ccc(C)cc1 | 0.3
O=c1c2ccccc2nc(SCc2nnc(-c3ccccc3Br)o2)n1Cc1ccco1 | 0.2
CCSc1oc(-c2cccs2)nc1S(=O)(=O)c1ccccc1 | i
CCN=c1scc(-c2ccco2)n1/N=C/c1ccc(OC)c(O)c1 | i
CCn1c(SCC(=O)NCc2ccccc2)nnc1-c1c[nH]c2ccccc12 | 0.6
CCN(CC)S(=O)(=O)c1cc(-c2nnc(-c3ccc(Br)cc3)o2)ccc1Cl | 0.2
O=C(NCCN1CCOCC1)c1ccc2c(c1)N(Cc1ccccc1)C(=O)CS2 | 0.9
O=c1[nH]cnc2nc3n(c12)CCCCC3 | 0.3
CC(=O)c1c(C)[nH]c(C(=O)COc2ccc(C#N)cc2)c1C | i
Cc1cccc(NC(=O)CSc2nnc(-c3ccc(S(=O)(=O)N4CCCC4)cc3)o2)c1 | 3.5
CCCn1c(-c2ccc(OC)cc2)nc2ccccc21 | 1.7
CCOC(=O)CSc1nnc(-c2ccccc2)c(=O)[nH]1 | i
CCOC(=O)c1cnc2c(-c3ccccc3)cnn2c1N | i
Cc1ccc(C(=O)Nc2ccc(OCc3ccccc3)cc2)cc1[N+](=O)[O-] | i
COc1ccc(C(=O)Nc2cc(OC)ccc2OC)cc1 | i
COc1ccc(N2C(=O)NC(NC(=O)c3ccncc3)(C(F)(F)F)C2=O)cc1 (stereo unspecified) | i
Cn1nnnc1SCC(=O)Nc1ccc(Oc2ccc(Cl)cc2)cc1 | 0.1
CCOC(=O)c1ccccc1NC(=O)CSc1nc2c(c(=O)n(C)c(=O)n2C)n1C | 0.4
Cc1ccnc(NC(=O)C23CC4CC(CC(C4)C2)C3)c1 | 0.3
OCCN(Cc1ccccc1)Cc1ccc(C(F)(F)F)cc1 | 0.2
Cn1c(=O)c2c(nc(SCCCC#N)n2Cc2c(F)cccc2Cl)n(C)c1=O | 0.9
Cc1ccc(C(=O)CN2/C(=C(\O)c3ccccc3)C(=O)c3ccccc3S2(=O)=O)c(C)c1 | 0.9
CC1(C)CN(c2ccccc2)N(C(=O)c2ccc(F)cc2)C1=O | i
CCc1ccc(C2NC(=S)NC3=C2C(=O)N(c2ccccc2OC)C(c2ccc(CC)cc2)N3)cc1 (stereo unspecified) | i
Further entries.
SMILES | H5N1 CPE
O=S(=O)(NC1CCCCC1NCc1ccco1)c1ccccc1 (stereo unspecified) | i
CC1(C)COCN1S(=O)(=O)c1ccc(C(=O)Nc2nnc(-c3ccc(Cl)s3)o2)cc1 | 3.3
CCn1cc(Br)c(C(=O)Nc2ccc(OC)cc2)n1 | 0.2
COc1cccc(C(=O)Nc2ccc(-c3nnc(-c4ccco4)o3)cc2)c1 | i
O=c1cc(CO)oc(C(Nc2ccccn2)c2ccc(C(F)(F)F)cc2)c1O (stereo unspecified) | 1.6
COCCCNC(=O)CN(C1CCCCC1)S(=O)(=O)c1ccc(C)cc1 | 5.0
Cc1nnc(SCc2ccc(Cl)cc2Cl)[nH]c1=O | 0.2
Cc1ccc(C2(O)CC(C)N(C)CC2C)cc1 (stereo unspecified) | 0.8
Cn1nnnc1SCC(=O)N1CCc2ccccc2C1 | i
COc1ccc(C2C(C(=O)NCCN3CCOCC3)c3ccccc3C(=O)N2C2CCCCC2)cc1 (stereo unspecified) | i
Cc1cc(NC(=O)COC(=O)c2cc(S(=O)(=O)N3CCOCC3)ccc2N2CCCCC2)no1 | 0.9
Cc1ccc(-c2cc(C(=O)NCc3cccnc3)no2)cc1 | 1.6
CCOc1cc(-c2noc(-c3ccncc3)n2)cc(Br)c1OC | i
O=C(Nc1ccc(F)c(Cl)c1)C1CCN(S(=O)(=O)c2cccnc2)CC1 | 1.4
COc1ccc(NC(C)=O)cc1NC(=O)CSc1nnc(-c2ccncc2)n1C | 0.5
CCC(=O)Nc1ccc(S(=O)(=O)Nc2cc(C)on2)cc1 | i
CC(=O)OCCNC(=O)Cn1cnc2c1c(=O)n(C)c(=O)n2C | 0.6
COCCNC(=O)c1cc(-c2ccccc2OC)on1 | i
O=C(NCCN1CCOCC1)N1c2ccccc2Sc2ccccc21 | 0.2
CCOc1ccccc1C(=O)NCC(=O)OCC(=O)N1C(C)CCCC1C (stereo unspecified) | 0.2
CC12CCCCC1(O)[N+](=O)C1=C(CCCC1)N2[O-] (stereo unspecified) | i
CC(C)NC(=O)CSc1nnc2sc3ccccc3n12 | 29.1*
O=C(Nc1nnc(C2CCCC2)s1)C1CCN(S(=O)(=O)c2ccc(Cl)cc2)CC1 | i
O=C(CN1CC=C(c2ccccc2)CC1)NC(=O)NCc1ccco1 | i
Cc1ccc(-n2c(SCc3cc(=O)n4ccsc4n3)nnc2-c2cccnc2)c(C)c1 | 5.6
COc1ccccc1-n1c(N)c(C(=O)NCC2CCCO2)c2nc3ccccc3nc21 (stereo unspecified) | i
Cc1cc(C)cc(N=c2c([N+](=O)[O-])nn(-c3cccc(Cl)c3)n2O)c1 | i
CN1CCCN(C(=O)Cc2c(Cl)cccc2Cl)c2nc3ccccc3nc21 | i
CCc1nnc(NC(=O)c2ccc(S(=O)(=O)NCC(C)C)cc2)s1 | 0.3
COc1ccc(OC)c(C2CC(=O)C(C)C(c3cc(OC)ccc3OC)N2)c1 (stereo unspecified) | i
COCCn1nc2cc(C(=O)NCc3cc(C(F)(F)F)cc(C(F)(F)F)c3)ccc2c1OC | i
CNc1nc(OCC(F)(F)F)nc(N2CCOCC2)n1 | 0.1
O=C(NCC(c1cccnc1)N1CCN(c2ccccc2F)CC1)c1cccc(Cl)c1 (stereo unspecified) | i
CC1CCN(C(=O)C2CCN(C(=O)c3cc4sccc4n3Cc3ccc(F)cc3)CC2)CC1 | i
COc1cc(C)nc(Oc2ccc(OCCOc3ccc(C)cc3)nn2)n1 | 0.1
Cc1ccccc1OC(=O)C1C(c2ccccc2)C(C(=O)O)C1c1ccccc1 (stereo unspecified) | 0.8
COc1cc2c(cc1OC)-c1cc(NC3CCCCCC3)nc(=O)n1CC2 | 1.6
Cc1csc2nc(CSc3ccc(Cl)cc3)cn12 | i
COc1ccc(N2Cc3cccc(C(=O)N4CCN(C(=O)c5ccco5)CC4)c3C2=O)cc1 | 2.3
COc1ccc(-n2nc(C(=O)O)c3ccccc3c2=O)cc1 | i
CCOC(=O)N1CCN(S(=O)(=O)c2cc(-c3nn4c(C)nnc4c4ccccc34)ccc2C)CC1 | 8.2
Cc1oc(-c2ccc(Cl)cc2)[n+]([O-])c1C | 0.1
CCN1C(=O)C(CC(=O)NCc2ccc(Cl)cc2)N(CC)C1=O (stereo unspecified) | i
CCC(=O)NC(Nc1sc2c(c1C(=O)OC)CCCC2)(C(F)(F)F)C(F)(F)F | i
COC(=O)c1ccccc1NC1=C/C(=N\S(=O)(=O)c2cccs2)c2ccccc2C1=O | i

Filtered by structure: the compounds so far with a CF3 group
SMILES | H5N1 CPE
FC(F)(F)c1cc(Sc2ccccc2)nc(-c2ccccn2)n1 | 0.1
O=C(NCCN1CCOCC1)c1nn2c(c1Cl)NC(c1ccccc1)CC2C(F)(F)F (stereo unspecified) | i
COc1ccc(N2C(=O)NC(NC(=O)c3ccncc3)(C(F)(F)F)C2=O)cc1 (stereo unspecified) | i
OCCN(Cc1ccccc1)Cc1ccc(C(F)(F)F)cc1 | 0.2
O=c1cc(CO)oc(C(Nc2ccccn2)c2ccc(C(F)(F)F)cc2)c1O (stereo unspecified) | 1.6
COCCn1nc2cc(C(=O)NCc3cc(C(F)(F)F)cc(C(F)(F)F)c3)ccc2c1OC | i
CNc1nc(OCC(F)(F)F)nc(N2CCOCC2)n1 | 0.1
CCC(=O)NC(Nc1sc2c(c1C(=O)OC)CCCC2)(C(F)(F)F)C(F)(F)F | i

(next part)
SMILES | H5N1 CPE
Clc1ccccc1-c1nn2c(-c3ccccn3)nnc2s1 | 4.9
COc1cc(/C=C(\C#N)C(=O)NCC2CCCO2)c([N+](=O)[O-])cc1OC (stereo unspecified) | i
Cc1ccc(S(=O)(=O)NCC(=O)OCC(=O)c2ccc(Br)s2)cc1 | i
COc1ccc(C(=O)NCc2cn3ccsc3n2)cc1OC | i
O=S1(=O)CCC(NCC2CCCO2)C1 (stereo unspecified) | i
O=C(c1ccccc1)N1CCCOC1c1ccccc1 (stereo unspecified) | i
Cc1occc1C(=O)NNC(=S)NCC(C)C | 0.6
O=C(CC1OC(=O)c2ccccc21)NC1CCCCC1 (stereo unspecified) | i
CC[n+]1c(/C=C2\C=C(C)CC(C)C2)sc2ccccc21 (stereo unspecified) | 5.0
Cc1ccc(C2=NNC(=O)C(c3ccc(Cl)cc3)C2)cc1 (stereo unspecified) | i
COc1cccc(C2C(C(N)=O)=C(C)Nc3nc(CCCO)nn32)c1OC (stereo unspecified) | i

Only part of the results is shown; count on the stated rates, not on these rows.
